# Sfp PPTase inh – inhibitors of Bacillus subtilis Sfp phosphopantetheinyl transferase; Q9F4F7; Biochemical Sfp PPTase activity, qHTS; Potency, µM, without a hit: max response, negative = inhibition, most hits filed as inhibitors; 310,000 compounds, 3.5% hits; AID 1490; active = well fitted inhibition curve with a large enough effect; inconclusive = small, poorly fitted or top-dose-only effect, or another doubt; inactive = no such curve, though single readings can be large or run the other way;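 note: the enzyme is Sfp with the accession as filed and its product quenches rhodamine fluorescence; 0% = enzyme reaction without inhibitor and -100% = no enzyme wells; top concentration of the series not given in the record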
#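 Fluorescence-quenching assay: 15 nM Sfp-PPTase preincubated 15 min at room temperature with compound, then 5 uM rhodamine-CoA and 12.5 uM BHQ-2-labelled YbbR peptide added. Fluorescence (ex 525/em 598 nm) read at start and after 30 min; difference gives rate.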
# Starred values were filed as active, the others as inactive; ? = inconclusive; & = joins results of further samples; ! = a repeat was not active; [ ] = another dose, or the depositor's remark. Potency is the fitted concentration of half-maximal effect. This is a subset, so the mix of outcomes need not match the whole.
SMILES,Sfp PPTase inh
CN(C)[C@H]1C(=O)C(C(=O)NCN2CCCC2)=C(O)[C@]2(O)C(=O)C3=C(O)c4c(O)cccc4[C@](C)(O)[C@H]3C[C@H]12,?
CCCn1c(C)nc2c(N(CCN(CC)CC)CCN(CC)CC)nc(C)nc21,25%
COc1cccc([C@@H]2Oc3ccc(OC)cc3C[C@H]2OC(=O)NCc2ccco2)c1,-3%
CN1C(=O)/C(=C\c2ccccc2)Sc2ccc(C(=O)N3CCN(c4ccccn4)CC3)cc21,-6%
COC1C(O)CC(=O)OC(C)C/C=C/C=C/[C@@H](OC2CCC(N(C)C)C(C)O2)C(C)C[C@@H](CC=O)[C@@H]1O[C@H]1OC(C)[C@H](O[C@@H]2C[C@@](C)(O)C(O)C(C)O2)C(N(C)C)C1O (stereo partly specified),-4%
C#CCn1c(=O)c2c(nc(/C=C/c3cccc(OC)c3)n2C)n(CCCO)c1=O,25%
CO[C@@H]1COC(=O)[C@H](COCc2ccccc2)NC(=O)C/C=C\[C@@H](C)[C@H](OC)COC(=O)[C@@H](C)NC(=O)C/C=C\[C@H]1C,12%
C[C@@](N)(C(=O)O)c1ccc(C(=O)O)cc1,50µM*!
Cc1cccc(C)c1NC(=O)CN1CCCCCC1,14%
CO[C@H]1COC(=O)[C@@H](C)NC(=O)C/C=C\[C@@H](C)[C@H](OC)COC(=O)C/C=C\[C@@H]1C,3%
CCCN1[C@H](C(=O)OC)C[C@@]2(O)[C@@H](O)[C@@H](O)[C@@H](O)C[C@@H]12,-4%
COc1cccc(C2=Nn3c(nnc3-c3ccccc3C)SC2)c1,63µM*
CN(C)C1C(=O)C(C(N)=O)=C(O)[C@@]2(O)C(=O)C3=C(O)c4c(O)ccc(Cl)c4C(O)[C@H]3C[C@@H]12 (stereo partly specified),5%
C=CCOC(=O)N[C@H](/C(C(=O)OC)=C(\C)NCc1ccccc1)c1cccc(OC)c1,-16%
CCC[C@@H]1C[C@@]1(CCC)C(NP(=O)(c1ccccc1)c1ccccc1)c1ccc(Cl)cc1 (stereo partly specified),-3%
COc1ccc(CNc2nc(NCc3ccc(OC)cc3)c3ncn(C4CCCCC4)c3n2)cc1,1%
COc1ccc(-c2nnc3n2N=C(c2ccc(OC)c(OC)c2)CS3)cc1,-14%
NCCC[C@@H](CC(=O)N[C@@H]1CCCC[C@H]1C(=O)N[C@H](CC(=O)N[C@@H](CCC(=O)O)CC(=O)O)Cc1ccccc1)NC(=O)C[C@H](CO)NC(=O)[C@@H]1CCCC[C@H]1N,6%
COc1ccc(C(=O)C2C3C4COC(O4)C(=O)C3C3C=Cc4ccccc4N32)c(OC)c1 (stereo unspecified),79µM*
Cc1ccc(C(O)C2=CCCC2=O)cc1 (stereo unspecified),-1%

# Sorted by SMILES length (largest number first): part of the list above
SMILES,Sfp PPTase inh
COc1cccc([C@@H]2Oc3ccc(OC)cc3C[C@H]2OC(=O)NCc2ccco2)c1,-3%
C#CCn1c(=O)c2c(nc(/C=C/c3cccc(OC)c3)n2C)n(CCCO)c1=O,25%
CCCn1c(C)nc2c(N(CCN(CC)CC)CCN(CC)CC)nc(C)nc21,25%

# Next section:
SMILES,Sfp PPTase inh
CC(C)C[C@@H](CC(=O)N[C@@H](CCC(=O)O)CC(=O)O)NC(=O)[C@@H]1CCCC[C@H]1NC(=O)C[C@H](CCCN)NC(=O)C[C@H](CO)NC(=O)[C@@H]1CNCC[C@H]1N,-18%
Cc1ccc(CNC(=O)[C@H](C)[C@H]2C[C@]2(C)[C@H](NC(=O)OCc2ccccc2)c2ccccc2)c(F)c1F,25%
COC(=O)N1[C@H](Cc2ccccc2)C=C[C@]1(C)C(=O)NCc1ccc(N(C)C)cc1,-3%
Cc1noc(C)c1-c1ccc2ncnc(NCc3ccc4[nH]ccc4c3)c2c1,0%
CC1(C)CCC[C@@](C)([C@H]2CC[C@]3(C)[C@@H]2[C@H](O)C[C@@H]2[C@@]4(C)CC[C@H](O)C(C)(C)[C@@H]4[C@@H](O)C[C@]23C)O1,9%
COc1ccc(OC2C=CC(c3ccccc3)OC2CO)cc1 (stereo unspecified),-30%
O=C(O)c1ccc2c(c1)C(=O)N(CCc1ccc(O)cc1)C2=O,18%
COc1cccc([C@@H]2Oc3ccc(OC)cc3C(=O)[C@H]2OC(=O)NCCc2ccc(OC)c(OC)c2)c1,7%
CC(C)(S)[C@H](N)C(=O)O,-56%
CS(=O)(=O)Nc1c(O)ccc2c1CCC[C@H]2C1=NCCN1,2%
CCN(CC)CCCC(C)n1c(-c2ccccc2)nc2c(NC3CCCCC3)nc(C)nc21 (stereo unspecified),3%
COc1ccc(-c2nc3c(c4c2C[C@H](c2ccccc2)OC4)CN(C(=O)C2CCCCC2)CC3)c(C)c1,19%
[O]=[Bi][O][Bi]=[O],-2%
CCC1=C2CC[C@H]3C(=O)N(c4ccccc4)C(=O)[C@H]3[C@H]2[C@@]2(Cc3ccccc3)C(=NCC3CC3)OC(=O)N2C1=O,14%
CC(C)c1cccc2nc3c(c([Si](C)(C)C(C)(C)C)c12)Cn1c-3cccc1=O,79µM*
NCCCC(N)CC(=O)NC1CNC(=O)C(C2CC(O)N=C(N)N2)NC(=O)/C(=C/NC(N)=O)NC(=O)C(CO)NC(=O)C(CO)NC1=O (stereo unspecified),10%
CC(=O)OC1CCC2(C)C3=C(CCC2C1(C)C)[C@@]1(C)CCC(C(C)CCC=C(C)C)[C@@]1(C)CC3 (stereo partly specified),-3%
CCC(C)C(=O)OC1CC(O)C=C2C=CC(C)C(CCC(O)CC(O)CC(=O)O)C21 (stereo unspecified),23%
CCCCc1nc2c(c3c1C[C@H](C)OC3)CN(C(=O)Cc1cccc(OC)c1)CC2,-10%
CCCC/C=C/C(NC(=O)c1ccccc1)c1ccccc1 (stereo unspecified),30%[activator]

# Nothing new here: 2 of the compounds above.
SMILES,Sfp PPTase inh
CCC1=C2CC[C@H]3C(=O)N(c4ccccc4)C(=O)[C@H]3[C@H]2[C@@]2(Cc3ccccc3)C(=NCC3CC3)OC(=O)N2C1=O,14%
CC(C)c1cccc2nc3c(c([Si](C)(C)C(C)(C)C)c12)Cn1c-3cccc1=O,79µM*

# (cont.)
SMILES,Sfp PPTase inh
CCOC(=O)CCN1C(=O)[C@H]2[C@H]3[C@H](O)[C@H](O)C/C(=N/OC/C=C(\C)CCC=C(C)C)[C@@H]3CC[C@@H]2C1=O,-11%
O=C(O)c1ccc2c(c1)C(=O)N([C@H](Cc1ccc(O)cc1)C(=O)O)C2=O,20%
C=C1C[C@@]23C[C@@]1(O)CC[C@@H]2[C@]12C=C[C@@H](O)[C@](C)(C(=O)O1)[C@@H]2[C@@H]3C(=O)O,13%
O=C1c2cccc3c2[C@@H](CCC3)CN1[C@@H]1CN2CCC1CC2,3%
CO[C@@H]1COC(=O)[C@H](C)NC(=O)C/C=C\[C@@H](C)[C@H](OC)COC(=O)[C@H](C)NC(=O)C/C=C\[C@H]1C,23%
O=C(N/N=C1/C[C@@H](O)[C@@H](O)[C@@H]2[C@@H]3C(=O)N(C[C@@H]4CCCO4)C(=O)[C@H]3CC[C@@H]12)OCc1ccccc1,5%
C=C(CCC12O[C@H](C(=O)O)[C@@](O)(C(=O)O)[C@](C(=O)O)(O1)[C@H](OC(=O)/C=C/[C@@H](C)C[C@@H](C)CC)[C@H]2O)[C@@H](OC(C)=O)[C@H](C)Cc1ccccc1,?
O=S1(=O)C2CC3CCC2(CN1Cc1cccc(F)c1)O3 (stereo unspecified),16%
CCOC(=O)C(=Cc1ccccc1)C(=O)OCC,-21%
COC(=O)N[C@@H](c1cccc(C)c1)[C@@H](C)[N+](=O)[O-],-15%
CCOC(=O)NCCOc1ccc(Oc2ccccc2)cc1,-4%
CC(C)[C@H](NC(=O)OC(C)(C)C)[C@@H](O)CC(=O)C(C)(C)C,3%
CCN1CCN(C(=O)N[C@H](C(=O)N[C@@H]2C(=O)N3[C@@H]2SC(C)(C)[C@@H]3C(=O)O)c2ccccc2)C(=O)C1=O,10%
CCCCNc1nc(C)nc2c1nc(-c1ccccc1)n2CCCN(CC)CC,5%
CNc1cc2c(Nc3cccc(Br)c3)ncnc2cn1,-1%
CO[C@H]1COC(=O)[C@H](C)NC(=O)C/C=C\[C@@H](C)[C@H](OC)COC(=O)C/C=C\[C@@H]1C,5%
COC(=O)NC(CC(C)=O)c1cccc(C(F)(F)F)c1 (stereo unspecified),6%
c1ccc(C(NCc2cccnc2)(c2ccccc2)c2ccccc2)cc1,?
CC(=O)N(O)[C@@H]1c2cc(C#N)ccc2OC(C)(C)[C@H]1O,13%
COC(=O)CC1C2(C)CC34OC5(C)O[C@@]6(C7/C(=C(/O)C(C)C)C(=O)OC(c8ccoc8)[C@]7(C)C(OC(C)=O)C(OC(C)=O)[C@]6(O5)[C@@]13C)C(OC(C)=O)[C@]4(O)C2OC(=O)C(C)C (stereo partly specified),4%

# A few values from the list:
# Entry of `CCN1CCN(C(=O)N[C@H](C(=O)N[C@@H]2C(=O)N3[C@@H]2SC(C)(C)[C@@H]3C(=O)O)c2ccccc2)C(=O)C1=O` in Sfp PPTase inh: 10%
# Entry of `CCOC(=O)C(=Cc1ccccc1)C(=O)OCC` in Sfp PPTase inh: -21%

# Back to the main list; the four compounds before the break are reprinted first.
SMILES,Sfp PPTase inh
COC(=O)NC(CC(C)=O)c1cccc(C(F)(F)F)c1 (stereo unspecified),6%
c1ccc(C(NCc2cccnc2)(c2ccccc2)c2ccccc2)cc1,?
CC(=O)N(O)[C@@H]1c2cc(C#N)ccc2OC(C)(C)[C@H]1O,13%
COC(=O)CC1C2(C)CC34OC5(C)O[C@@]6(C7/C(=C(/O)C(C)C)C(=O)OC(c8ccoc8)[C@]7(C)C(OC(C)=O)C(OC(C)=O)[C@]6(O5)[C@@]13C)C(OC(C)=O)[C@]4(O)C2OC(=O)C(C)C (stereo partly specified),4%
CCCCCCCCOc1ccc(C(=O)c2ccccc2)c(O)c1,8%
CC1CC=CC2C1C(=O)N(Cc1ccccc1)C2c1ccc(-c2ccoc2)cc1F (stereo unspecified),-26%
COc1ccc(C2CC(c3ccccc3)Oc3cc(C)cc(C)c32)cc1 (stereo unspecified),-12%&-7%
CN(C)CCCc1cc(C(=O)Nc2ccc(-c3ccncc3)cc2)ccc1O,-1%&-21%
CCCCc1nnc(NC(=O)COc2ccc3c(C)cc(=O)oc3c2)s1,11%
CCCCNC(=O)NS(=O)(=O)c1ccc(C(=O)O)cc1,20%
Nc1ncn(C2C[C@H](O)[C@@H](CO)O2)c(=O)n1 (stereo partly specified),15%
Cc1nc(NC2CCCCC2)c2nc(-c3ccccc3)n(C(C)CN(C)C)c2n1 (stereo unspecified),6%
CO[C@@H]1COC(=O)[C@H](C)NC(=O)[C@@H](C)COC(=O)CCC[C@H]1C,12%
CC(C)(C)N1C(=O)[C@H]2[C@@H]3[C@H](O)[C@H](O)CC(=O)[C@H]3CC[C@H]2C1=O,11%&9%
COc1cc(CNc2ncnc3ccc(-c4c(C)noc4C)cc23)cc(OC)c1OC,9%
COCCn1c(C(=O)N2CCCC2)cc2c1C[C@H]1CN(C(=O)c3ccccc3)[C@@](Cc3ccc(OC)cc3)(C(=O)OC)[C@@H]21,7%
N=c1ccn2c(n1)O[C@@H]1[C@H](O)[C@H](CO)O[C@@H]12,11%
Cc1noc(C)c1-c1ccc2ncnc(NC(C)c3ccccc3)c2c1 (stereo unspecified),-19%
COc1cccc([C@@H]2Oc3ccc(Br)cc3C(=O)[C@H]2OC(=O)N[C@H]2CCCc3ccccc32)c1,7%
COc1ccc2c(c1)O[C@@H](c1ccc3c(c1)OCO3)[C@H](OC(=O)NCc1ccc3c(c1)OCO3)C2=O,-1%
COc1ccccc1NC(=O)Nc1nc(-c2cccnc2)nc2ccccc12,23%&-12%
NCCCC[C@H](NC(=O)[C@@H](Cc1ccccc1)NC(=O)[C@H](Cc1c[nH]c2ccccc12)NC(=O)[C@@H](CCCCN)NC(=O)[C@@H](Cc1c[nH]c2ccccc12)NC(=O)[C@@H](N)Cc1cnc[nH]1)C(N)=O,6%
C=C1C2CC[C@@]3(C)C(c4ccoc4)OC(=O)C[C@@]13OC1CC(=O)C(C)(C)C(CC(=O)OC)[C@]12C (stereo partly specified),23%
CCSC[C@H](NC(=O)[C@H](C)N)C(=O)N[C@@H](CC(=O)O)C(=O)N[C@H](C(=O)N[C@@H](C)C(=O)N[C@H](C(=O)N[C@@H](CSCC)C(=O)N[C@H](C(=O)N[C@H](C(=O)N[C@@H](Cc1cnc[nH]1)C(=O)N[C@@H](CCCNC(=N)N)C(=O)N[C@@H](CC(C)C)C(=O)N[C@@H](C)C(=O)NCC(=O)N[C@@H](CC(C)C)C(=O)N[C@@H](CC(C)C)C(=O)N[C@@H](CO)C(=O)N[C@@H](CCCNC(=N)N)C(=O)N[C@@H](CO)C(=O)NCC(=O)NCC(=O)N[C@H](C(=O)N[C@H](C(=O)N[C@@H](CCCCN)C(=O)N[C@@H](CC(N)=O)C(=O)N[C@@H](CC(N)=O)C(=O)N[C@@H](Cc1ccccc1)C(=O)N[C@H](C(=O)N1CCC[C@H]1C(=O)N[C@H](C(=O)N[C@@H](CC(N)=O)C(=O)N[C@H](C(=O)NCC(=O)N[C@@H](CO)C(=O)N[C@@H](CCCCN)C(=O)N[C@@H](C)C(=O)N[C@@H](Cc1ccccc1)C(N)=O)C(C)C)[C@@H](C)O)C(C)C)C(C)C)C(C)C)[C@@H](C)O)C(C)C)[C@@H](C)O)[C@@H](C)O,7%
CC1=C2C(=COC(C)C2C)C(=O)C(C(=O)O)=C1O (stereo unspecified),-13%
COC(=O)[C@@H]1C[C@H]1[C@@H](NS(=O)(=O)c1ccc2ccccc2c1)c1ccccc1,-4%
COc1cccc([C@@H]2Oc3ccc(Br)cc3C[C@H]2OC(=O)NS(=O)(=O)c2ccc(C)cc2)c1,-8%

# Screening data (PubChem BioAssay)
